Bioassay records as filed in PubChem BioAssay.
PABP polyA inh: blocks human PABP binding to poly(A) RNA; fluorescence polarization; inhibition, % at 35 µM; actives 1% (n = 290,000);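 active means 50% or more with normal probe brightness, or confirmed in later tests; inconclusive means above 50% with abnormal brightness, or retests that disagree; inactive means below 50% or failed in later tests; about a fifth of its hits are not listed in these tables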;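 further: calls also rest on retests at 20 µM and on dose response follow-up; controls were probe without protein and protein plus probe with vehicle; some compounds called inactive have numbers as strong as hits; many hits fall short of the cut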
Target sequence (P11940 whole entry, looked up): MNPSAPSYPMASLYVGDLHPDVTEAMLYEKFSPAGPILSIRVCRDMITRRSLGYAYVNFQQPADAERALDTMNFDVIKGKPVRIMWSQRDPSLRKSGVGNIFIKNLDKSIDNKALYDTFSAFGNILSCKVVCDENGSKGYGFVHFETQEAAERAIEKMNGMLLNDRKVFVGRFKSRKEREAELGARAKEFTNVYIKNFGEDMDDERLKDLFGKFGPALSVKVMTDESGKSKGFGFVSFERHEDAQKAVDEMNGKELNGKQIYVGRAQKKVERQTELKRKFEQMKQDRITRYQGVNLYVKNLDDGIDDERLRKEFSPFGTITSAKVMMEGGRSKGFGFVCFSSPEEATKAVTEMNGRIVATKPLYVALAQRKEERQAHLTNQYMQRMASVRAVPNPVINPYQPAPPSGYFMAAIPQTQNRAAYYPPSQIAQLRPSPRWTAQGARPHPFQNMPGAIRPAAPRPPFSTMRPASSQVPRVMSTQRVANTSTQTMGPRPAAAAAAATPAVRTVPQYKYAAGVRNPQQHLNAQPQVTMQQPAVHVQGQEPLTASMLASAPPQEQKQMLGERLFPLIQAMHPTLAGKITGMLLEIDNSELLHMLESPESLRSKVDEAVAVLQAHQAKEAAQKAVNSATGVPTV
MT1-MMP act inh: MT1-MMP (human) activation inhibition; P50281; HT1080 RFP-PRO-GFP cells, GFP/RFP ratio fluorescence, overnight; percent of plate control window, DMSO zero; GFP/RFP ratio change, % at 20 µM; actives 0.061% (n = 360,000); AID 651647;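 active means GFP/RFP ratio change of at least 30% with cell ATP level not reduced by more than half and red fluorescence within 50% of control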; further: strong numbers were not always called active
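Assay system: HT1080 RFP-PRO-GFP cells. Benchmarks: DMSO vehicle wells and RFP-L50D-GFP reporter cell wells. Times: overnight cell settling, then overnight compound exposure, 37 °C, 5% CO2. Compound: 20 µM single dose, 1% DMSO. Read-out basis: GFP/RFP fluorescence ratio.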
CSC inhib: blocks cancer stem cells; cancer stem cell-like cells viability, luminescence; inhibition, % at 7.5 µM; actives 1.1% (n = 300,000);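 active means mean at 75% or more and at least half the replicates too; inconclusive means mean and replicates disagree; tested in HMLE shEcad cells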;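 further: 0% = median of negative and 100% = median of positive control wells; the first replicate is given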
Env fusion inh: HIV envelope-mediated fusion inhibition; actives 1.1% (n = 360,000); HeLa-JRFL Env/CEM21 cell fusion, luciferase; inhibition, % at 12.3 µM;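 active means mean replicate inhibition score of at least 50 and every replicate individually at or above 50; inconclusive means only one of the two criteria met; inactive means mean below 50 and not all replicates reaching 50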;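 further: 0% = plate neutral controls and 100% = maraviroc near 300 nM; one replicate is shown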
UUG fidelity: modulators of start codon recognition fidelity in yeast. activity score, % at 18.7 µM. S. cerevisiae UUG-firefly luciferase reporter, luminescence/redox ratio. AID 602363. actives 0.13% (n = 350,000);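 active means replicate mean at a twofold rise or more, about +100% in these data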;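 further: firefly luciferase made from a UUG start codon reports start codon fidelity; reporter light over untreated wells divided by growth signal over untreated wells; some hits fall short of that in this replicate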
eIF4H FP inh: inhibitors of RNA binding by human eIF4H. Q15056. eIF4H fluorescence polarization binding assay. inhibition, % at 35 µM. actives 0.94% (n = 290,000). AID 2012;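 active means 50% or more with normal probe brightness, or confirmed in later tests; inconclusive means above 50% with abnormal brightness, or retests that disagree; inactive means below 50% or failed in later tests; about a fifth of its hits are not listed in these tables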;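 further: calls also rest on retests at 20 µM and on dose response follow-up; 0% = protein and probe with vehicle and 100% = probe without protein; strong numbers were not always called active; many hits fall short of the cut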
Rce1 inh: yeast Ras-converting enzyme inhibition; Q03530; yeast membranes, quenched prenylated peptide cleavage fluorescence; calls only; actives 0.27% (n = 290,000);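 active means fall in fluorescence gain of 50% or more versus controls, with final raw signal at or below 3038400; inconclusive means same 50% fall but final raw signal above 3038400; inactive means fall in fluorescence gain under 50%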;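 further: plate controls were neutral control wells for no effect and wells lacking membranes for full effect; tested at 10 µM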
MT1-MMP act inh RFP: recorded beside MT1-MMP act inh, whose call it bears; RFP signal change, %; measured here: RFP expression control read;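 0 = vehicle wells; hits needed this value within 50% of zero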
* marks the source's active call; other numbers are inactive results; i = inactive; ? = inconclusive; / = not tested or not shown; & = joins results of further samples.

Results follow in this order: Rce1 inh	MT1-MMP act inh RFP	UUG fidelity	MT1-MMP act inh	Env fusion inh	eIF4H FP inh	CSC inhib	PABP polyA inh
1. CCc1ccc(S(=O)(=O)NCc2cn3c(C)csc3n2)s1
 : i	0	-21	2	16	0	-17	-4
2. O=C(NCc1ccco1)C(c1ccco1)N(C(=O)Cn1nnc2ccccc21)c1ccc2c(c1)CCC2 (centres undefined)
 : i	-6	6	-3	/	/	2	/
3. O=C(c1ccc(F)cc1)N1CCN(C2CC3CCC2C3)CC1 (centres undefined)
 : i	3	-15	1	23	6	-7	-8
4. COc1ccc([C@H]2C[C@H](O)[C@@H](n3cc(C4CC4)nn3)CN2C(=O)C2CCCCC2)cc1
 : /	2	-11	2	19	/	/	/
5. O=S(=O)(Nc1ccc(-c2ccc3nncn3n2)cc1)c1cccc(F)c1
 : i	3	21	3	-13	/	8	/
6. COc1ccc(Cl)cc1NC(=O)CN(C)CC(=O)Nc1ccc(S(N)(=O)=O)cc1
 : /	2	-17	0	0	-3	-11	9
7. CCCCCc1ccc(-c2ccc(C(=O)O)cc2)nc1
 : i	-1	-55	0	-25	-3	-24	2
8. CCN(CC)CCNC(=O)c1ccc(NC(=O)CC(NC(=O)c2ccccc2Cl)c2ccccc2)cc1 (centres undefined)
 : i	1	2	0	-8	29	-9	6
9. CC1CCCC(NC(=O)CSc2nnnn2C)C1C (centres undefined)
 : i	3	-11	5	/	-9	-5	-4
10. CCSc1nnc(NC(=O)CSc2ncccn2)s1
 : i	3	-20	4	/	0	-8	9
11. CC(C)C[C@@H](NC(=O)C1CCC(CNC(=O)[C@H](Cc2ccccc2)NC(=O)OC(C)(C)C)CC1)C(=O)O (some centres undefined)
 : i	-3	3	0	8	0	/	-1
12. Cc1cc(C)c(S(=O)(=O)N2CCOC2CNC(=O)C(=O)NCCCN2CCCC2=O)c(C)c1 (centres undefined)
 : i	0	-17	0	-18	-1	/	-2
13. COC(=O)C(O)(CC(=O)Nc1ccc(OC(F)(F)F)cc1)C(F)(F)F (centres undefined)
 : i	5	/	0	/	-1	3	0
14. Cc1cc(Nc2ccccc2)n(-c2ccc(C(=O)O)cc2)n1
 : /	-2	/	-3	12	0	-12	3
15. CCCCS(=O)(=O)Nc1ccc(C)cn1
 : i	13	-20	8	/	17	-5	-1
16. COC(=O)C1(C)CN(S(=O)(=O)c2ccc(C)cc2)c2cc(OC)ccc2C1=O (centres undefined)
 : i	-7	/	3	10	5	0	-5
17. CCc1ccc(N(CC(=O)NC2CCCC2)C(=O)CCC(=O)Nc2cc(C)on2)cc1
 : i	-1	4	2	-10	3	-3	2
18. CC(C(=O)N1CCOCC1)N1c2cccc3cccc(c23)S1(=O)=O (centres undefined)
 : i	4	-24	-2	/	3	15	8
19. CN(C)c1cc2c(c(N(C)C)c1)C(=O)c1ccccc1C2=O
 : i	/	11	/	-102	-1	/	-2
20. CN(C(=O)c1cccs1)C1(C)CCS(=O)(=O)C1 (centres undefined)
 : i	4	-25	-1	-4	-12	1	2
21. Brc1ccc(-c2cn3c(n2)CCc2ccc4cccnc4c2-3)cc1
 : i	4	-39	-3	-25	9	33	10
22. CC(=O)N1N=C2c3ccccc3CCC2C1c1cccs1 (centres undefined)
 : i	-5	-4	-2	-21	-3	-13	-8
23. CCN1CCN(CCCNC(=O)CNC(=O)c2nn(-c3ccc(OC)cc3)c(=O)c3ccccc23)CC1
 : i	2	-3	1	-24	0	9	-5
24. C/C(CC(=O)Nc1ccc(Cl)c(C(F)(F)F)c1)=N\NC(=O)c1ccccc1O
 : i	-12	/	-2	?	-10	-12	2
25. Cc1nc2ccc(NC(=O)Cc3ccccc3F)cc2s1
 : i	-1	/	-1	-47	-8	-5	-5
26. COc1ccc(NC(=O)c2cccnc2N2CCCC2)cc1
 : i	-3	-12	-2	/	-4	6	3
27. O=C(COc1ccccc1N1C(=O)c2ccccc2C1=O)c1ccc(Cl)cc1
 : i	-1	3	-1	-169	-1	-4	10
28. CC(=O)N1c2ccc(S(=O)(=O)N3CCC(C(=O)N4CCN(c5cc(Cl)ccc5C)CC4)CC3)cc2CC1C (centres undefined)
 : i	-20	-13	-2	10	2	-2	9
29. CSCC[C@H](NC(=O)COc1cc2c(c3oc(=O)c(C)c(C)c13)CCC(C)(C)O2)C(=O)O
 : i	4	3	5	6	-14	-7	1
30. COCCCNC(=S)NNC(=O)c1ccoc1C
 : i	4	-8	1	-6	-4	/	0
31. Cn1c(CCC(=O)Nc2ccc(F)cc2)nc2cc(S(=O)(=O)N3CCOCC3)ccc21
 : i	-2	-16	0	/	/	-13	/
32. COc1ccc(-n2ncc(C(=O)NC3CC3)c2C2CCN(C(=O)OC(C)(C)C)CC2)cc1
 : i	1	/	1	1	-14	-5	0
33. Cc1ccc(Nc2ncccc2C(N)=O)cc1
 : i	0	/	-2	-50	-5	10	8
34. CC(C)C[C@@H](CN)NC(=O)c1nc[nH]c1C(=O)N[C@@H](C)C(=O)CNC[C@H](CC(C)C)NC(=O)c1nc[nH]c1C(=O)N[C@@H](Cc1ccccc1)C(=O)O
 : /	7	19	3	-27	/	/	/
35. CC(NC(=O)C1CCN(C(=O)[C@@H]2Cc3ccccc3CN2)CC1)c1ccccc1 (some centres undefined)
 : i	0	-19	0	0	-10	-15	3
36. COc1ccc(NS(=O)(=O)c2cccc(C(=O)NNC(=O)c3ccc(C)o3)c2)cc1
 : /	-11	-3	5	/	/	-13	/
37. CCOc1ncccc1C(=O)OCC(=O)Nc1ccc(C)c(S(=O)(=O)N2CCOCC2)c1
 : i	0	/	2	27	-1	/	4
38. O=C(N/N=C/c1ccc(Cl)cc1Cl)c1ccc2nc[nH]c2c1
 : i	2	-14	3	-19	/	-2	/
39. CCn1nc(C(C)C(=O)O)c2ccccc2c1=O (centres undefined)
 : i	-3	1	-6	6	6	-8	-2
40. O=C(Nn1cnnc1)c1ccc(F)cc1
 : i	4	-14	2	9	-12	-15	4
41. COc1ccccc1NC(=O)COc1cccc2c1CCNC2=O
 : i	5	-19	2	8	/	/	/
42. Cc1nonc1OCC(C)(COc1nonc1C)NC(=O)c1ccccc1
 : i	5	8	1	0	4	-9	-3
43. COCCN(C(=O)COC(=O)CCc1ccccc1OC)c1c(N)n(Cc2ccccc2)c(=O)[nH]c1=O
 : i	3	-29	3	/	/	3	/
44. O=C(COC(=O)CNC(=O)c1ccc(Cl)cc1)Nc1ncc(C(F)(F)F)cc1Cl
 : i	7	/	-6	7	11	-10	9
45. CC(OC(=O)CCC(=O)c1cccs1)C(=O)Nc1ccc(Cl)cn1 (centres undefined)
 : i	3	/	-1	19	-6	-6	-10
46. CCC(CO)Oc1cc(NC(=O)c2ccc(N)cc2)c2ncn(C(C)C)c2c1 (centres undefined)
 : /	1	19&26	11	6	/	/	/
47. Cc1nn(CC(=O)NCCc2ccccc2)c(C)c1[N+](=O)[O-]
 : i	3	-16	-2	-2	-9	3	-5
48. Cc1cc(C)c(NC(=O)CNC(=O)c2ccc(-n3cncn3)c([N+](=O)[O-])c2)c(C)c1
 : i	-2	-13	-2	-3	/	10	/
49. CC1=C(C(=O)N2CCOCC2)CC(CC(=O)NCC2CCCCC2)C(=O)N1Cc1ccc(F)cc1 (centres undefined)
 : /	3	-13	1	7	/	/	/
50. COCCn1c(-c2ccc(OC(F)(F)C(F)C(F)(F)F)cc2)nc2c1c(=O)[nH]c(=O)n2CC(C)C (centres undefined)
 : /	-3	/	1	/	15	1	-7

Other records
Results follow in this order: Rce1 inh	MT1-MMP act inh RFP	UUG fidelity	MT1-MMP act inh	Env fusion inh	eIF4H FP inh	CSC inhib	PABP polyA inh
51. O=C(Nc1ccc(F)cc1)Nc1ccccc1NS(=O)(=O)c1cccs1
 : i	5	-13	3	4	3	-1	0
52. NC(=O)CC(NC(=O)Cc1cccc2ccccc12)c1ccc(NCc2ccc(F)c(F)c2)c([N+](=O)[O-])c1 (centres undefined)
 : i	-2	-2	8	-76	-6	?	6
53. CCSc1nnc(NC(=O)CN2C(=O)N(C)C3(CCCCC3)C2=O)s1
 : /	4	-12	11	-6	/	/	/
54. COC(=O)[C@@]12CCCN1[C@H](c1ccc(-c3ccc(F)cc3)cc1)[C@H]1C(=O)N(C)C(=O)[C@H]12
 : i	-2	-3	1	-18	/	7	/
55. CCOC(=O)C1(Cc2ccccc2C)CCCN(C(=O)c2ccc(COC)o2)C1 (centres undefined)
 : /	0	-8	-1	-34	-8	3	-6
56. Cc1ccc(S(=O)(=O)NCCC(=O)Nc2nnc(C3CC3)s2)cc1C
 : i	-1	-6	-8	/	-10	-11	-4
57. CCSc1nnc2ccc(-c3ccc(OC)c(OC)c3)nn12
 : i	10	-16	3	6	-8	9	-5
58. CC(OC(=O)/C=C/c1ccco1)C(=O)Nc1cccc([N+](=O)[O-])c1 (centres undefined)
 : i	-4	/	-2	30	16	-2	-4
59. Cc1ccc(SCC(=O)Nc2ccc3c(c2)C(=O)N(C)C3=O)cc1
 : i	4	-16	-1	-2	0	-5	17
60. Cc1ccccc1NC(=S)NCCO
 : i	7	/	2	-297	-1	-8	28
61. COc1ccccc1CN1C(=O)C2CC=CCC2C1=O (centres undefined)
 : i	-1	-9	-2	-17	-2	9	-3
62. NC(=O)CC(NC(=O)Cc1cccc2ccccc12)c1ccc(N2CCc3ccccc3C2)c([N+](=O)[O-])c1 (centres undefined)
 : i	-5	56	3	1	-6	?	-7
63. CC(C1CC1)N(Cc1ccccc1)C(=S)Nc1ccccc1 (centres undefined)
 : i	4	-22	4	1	-4	-11	-1
64. O=C(Nc1csnn1)c1csnn1
 : i	4	-12	2	2	-10	0	4
65. COc1ccc(NC(=O)c2ccc(S(=O)(=O)N(C)C)cc2)cc1OC
 : i	5	-1	-4	/	4	-11	0
66. CCCNC(=O)COC(=O)c1ccc(Cl)c(S(=O)(=O)N2CCCC2)c1
 : i	7	-14	1	-64	9	-8	-3
67. COc1ccc2c(CC(=O)OCC(=O)Nc3sc4c(c3C#N)CCC(C)C4)coc2c1 (centres undefined)
 : i	4	-9	2	5	2	7	2
68. Cc1cc(C(=O)OCC(=O)c2ccc3c(c2)OCCO3)c(C)o1
 : i	-3	-22	-6	/	-12	-11	0
69. CCS(=O)(=O)N1CCN=C1SCc1cccc(F)c1
 : i	3	-11	0	-1	-4	-8	9
